CBX7 AlphaScr: blocks human CBX7 binding to H3K27me3 peptide | O95931 | AlphaScreen His6-CBX7 / biotin-H3K27me3 peptide binding; active compounds read low | 66,000 tested, 1.1% active | AID 1224903 | normalised signal (fraction of DMSO) (concentration not given with the values); in the data active = normalised signal below about 0.5;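 also: 100 nL library stock added to about 20 µL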
CBX7 AlphaScr z-score: recorded beside CBX7 AlphaScr, whose call it bears; z-score; measured here: z-score of CBX7 signal; some inactives read as strong as hits; reference of the scale not given here;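 same signal on another scale; lower means less binding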
* hit, by the source's call.

SMILES	CBX7 AlphaScr	CBX7 AlphaScr z-score
Cc1ccc(C)c(Cc2c(C)nc3c(C(=O)N4CCOCC4)cnn3c2C)c1	0.95	-1.4
CC(Oc1ccccc1)C(=O)N1CC(=O)Nc2ccc(F)cc2C1c1ccccc1 (configuration not stated)	0.93	-0.1
Cc1nc(N2CCC(C)CC2)c2c(C)c(C(=O)NC3CCCCC3)sc2n1	0.87	-1.9
CCC(=O)N1CCc2cc(S(=O)(=O)NCCN(C)Cc3ccccc3)ccc21	1.1	1.4
Cc1ccccc1CN1C(=O)C(O)(C(C)C(=O)c2ccccc2)c2ccccc21 (configuration not stated)	0.52	-2.1
O=C(c1ccc2c(c1)N(Cc1ccccc1)CCS2)N1CCN(c2cccc(C(F)(F)F)c2)CC1	0.7	-0.4
CCCCN(Cc1ccccc1)S(=O)(=O)c1ccc2c(c1)CCN2C(=O)C1CC1	1	-0.0094
O=S(=O)(Nc1ccc(-c2nc3ccccc3o2)cc1)c1ccc(Cl)cc1	1	0.99

Given as a markdown table: part of the list above
| Molecule | CBX7 AlphaScr | CBX7 AlphaScr z-score |
| --- | --- | --- |
| Cc1nc(N2CCC(C)CC2)c2c(C)c(C(=O)NC3CCCCC3)sc2n1 | 0.87 | -1.9 |
| O=C(c1ccc2c(c1)N(Cc1ccccc1)CCS2)N1CCN(c2cccc(C(F)(F)F)c2)CC1 | 0.7 | -0.4 |
| O=S(=O)(Nc1ccc(-c2nc3ccccc3o2)cc1)c1ccc(Cl)cc1 | 1 | 0.99 |
| CCCCN(Cc1ccccc1)S(=O)(=O)c1ccc2c(c1)CCN2C(=O)C1CC1 | 1 | -0.0094 |

Source: PubChem (several laboratories)

Some of the compounds tested; rates above refer to the full screens.
